# AmpC inh no det – Promiscuous and Specific Inhibitors of AmpC Beta-Lactamase (assay without detergent); 1.8% of 71,000 active; Potency, µM (top dose mostly 28.7 µM), for inactives: top-dose activity change, negative = inhibition; P00811; AmpC nitrocefin hydrolysis, absorbance 480 nm, no detergent; potencies from a single point are estimates; active = falling curve, for most hits resting on a single point; inconclusive = weak or doubtful change; inactive = flat or rising curve; note: % of control where 0% means no effect; about half of the hits show no inhibition at the top dose; a quarter of the inactives give rising signals
# Target sequence (P00811 whole entry, looked up): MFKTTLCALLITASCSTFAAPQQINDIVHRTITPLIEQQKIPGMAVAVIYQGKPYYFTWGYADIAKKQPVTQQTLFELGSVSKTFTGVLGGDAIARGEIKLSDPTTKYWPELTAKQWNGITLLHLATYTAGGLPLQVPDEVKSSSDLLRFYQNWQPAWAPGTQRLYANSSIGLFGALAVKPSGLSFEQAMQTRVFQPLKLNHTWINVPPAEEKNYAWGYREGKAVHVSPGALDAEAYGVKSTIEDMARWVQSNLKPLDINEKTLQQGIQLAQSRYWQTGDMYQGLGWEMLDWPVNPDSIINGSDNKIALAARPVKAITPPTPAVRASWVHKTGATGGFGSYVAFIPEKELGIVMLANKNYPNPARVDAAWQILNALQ
#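 Enzyme, pH 7.0 phosphate. Compound titrations were pre-incubated with AmpC for 15 min at room temperature before nitrocefin (stock 800 uM) addition; product formation was recorded at 480 nm every 20 s for 4 min.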
# The depositor's hits bear a star; ? = inconclusive; [ ] = dose if it differs, or a comment. Potency is the fitted concentration of half-maximal effect.
Structure,AmpC inh no det
Cn1cc(S(=O)(=O)Nc2ccc(F)cc2F)c(=O)n(C)c1=O,94%
CCOC(=O)c1c(NS(=O)(=O)c2cccc(OC)c2)sc2c1CCC2,-10%
O=C(NC12CC3CC(CC(C3)C1)C2)C1=COCCO1,-14%
CC(C)NCC(O)COc1c(F)cc(Br)cc1F (stereo not drawn),-11%
COc1ccc(CC(=O)Nc2cc(C)on2)cc1,-12%
COc1cc(NC2c3ccccc3C(=O)N2c2ccc(C)cn2)cc(OC)c1OC (stereo not drawn),76%
Cn1c(CCC(=O)Nc2ccc(N3CCOCC3)cc2)nc(=O)c2ccccc21,30%
N#CCCn1c(=O)cnc2cnc(Oc3cccc(Cl)c3)nc21,13%
CC1(C)OCC(CSC2=C(SCC3COC(C)(C)O3)C(=O)c3ncccc3C2=O)O1 (stereo not drawn),16%
COc1ccc(OC)c(NC(=O)C2CCCC2)c1,0%

# The list continues.
Structure,AmpC inh no det
COc1cccc(Nc2ncc3ncc(=O)n(Cc4ccc(F)cc4)c3n2)c1,11%
COc1ccc2[nH]cc(CCNc3ccnc(-c4ccoc4)n3)c2c1,-23%
COc1ccc(CC(=O)NCc2cn3ccsc3n2)cc1,6%
Cn1c(=O)c2c(nc(/C=C\c3cccc(Cl)c3)n2C)n(C)c1=O,12%
CC1=C(C)CC(C(=O)c2ccccc2)C(C(=O)O)C1 (stereo not drawn),-3%
O=C(c1ccc(Br)o1)N1CCN(C/C=C/c2ccccc2)CC1,80%
COc1ccccc1CC1(C)NC(=O)N(CC(=O)N2CCc3ccccc3C2)C1=O (stereo not drawn),76%
CCn1cc(S(=O)(=O)CC(=O)Nc2ccc(C)cc2)c2ccccc21,2%
CCOC(=O)CCNCC1COc2ccccc2O1 (stereo not drawn),4%
CCCn1c(=NC(=O)c2ccncc2)c(C#N)cc2c(=O)n3cccc(C)c3nc21,20%

# (continued)
Structure,AmpC inh no det
O=c1c2ccccc2nc2n1-c1ccccc1CCC2,2%
CCOC(=O)c1oc2ccccc2c1CN1CCOCC1,13%
O=C(CCS(=O)(=O)c1ccc(Cl)cc1)N1CCN(c2ccccc2F)CC1,39%
CCN(Cc1ccccc1)S(=O)(=O)c1ccc(S(=O)(=O)N2CCN(C)CC2)cc1,68%
COc1ccc(CNC(=O)C2CCN(c3nccs3)CC2)cc1,18%
O=C(O)CSc1nnc(-c2cccnc2)n1Cc1ccccc1,0%
CC(CCc1ccccc1)NC(=O)c1ccc(Br)o1 (stereo not drawn),0%
CSCCC(NC(=O)c1ccc(=O)n(C)n1)c1nc2ccccc2[nH]1 (stereo not drawn),4%
CCCCNC(=O)c1ccccc1C(=O)NCCCC,0%
COc1ccc(OC)c(CCNC(=O)CN2C(=O)CC(C)(C)S(=O)(=O)c3ccccc32)c1,86%

# Following part
Structure,AmpC inh no det
COCCCn1cnc2oc3nc4ccccc4nc3c2c1=O,10%
Cc1cc2nc(C)n(CCCN)c2cc1C,9%
COc1ccc(S(=O)(=O)N2CCC(C(=O)N3CCCC3)CC2)cc1Cl,65%
O=C(c1oc2ccccc2c1N1CCCCC1)N1CCCCC1,32%
O=C(C1CCCO1)N(Cc1ccccc1)c1ccccc1 (stereo not drawn),-3%
CCOCCCNC(=O)C1CCN(S(=O)(=O)N(CC(C)C)CC(C)C)CC1,102%
Cc1ccc(-n2nc(C)c3c2OC(N)=C(C#N)C3c2ccoc2)cc1 (stereo not drawn),-5%
Cc1cc(C)n(Cc2nc3ccccc3n2C)n1,-16%
CSc1ccc(-c2nnn(CC(=O)NCc3ccccc3)n2)cc1,-5%
Cc1ccc(S(=O)(=O)N(C)CCCC(=O)N2CCN(C=O)CC2)cc1,82%

# (more compounds)
Structure,AmpC inh no det
CC(C)CNc1cc(Cl)c(S(=O)(=O)NCC(C)C)cc1C(=O)O,-12%
Cc1cc(Cl)c(S(=O)(=O)NCc2ccncc2)cc1OCC(N)=O,-11%
COC(=O)[C@@]1(Cc2ccccc2)[C@H]2c3cc(C(=O)N(C)C)n(Cc4ccccn4)c3C[C@H]2CN1C(=O)c1ccccc1,158%
CCOC(=O)CN(C(=O)CSc1nnc(-c2cccc(OC)c2)o1)c1ccc(F)cc1,85%
Cc1cccc(CNc2ncnc3ccc(-c4cccnc4)cc23)c1,29%
Cc1cc2ccccc2c(=O)n1CC(=O)NC1CCCCCC1,6%
N#C[C@H](c1ccccc1)N1CCCN([C@@H](C#N)c2ccccc2)C1c1ccccc1O (stereo partly drawn),-1%[5.75 µM]
COC(=O)c1sc2ccccc2c1NC(=O)c1cccs1,-4%
O=C(COC(=O)CNC(=O)c1ccco1)NCCN1C(=O)CSC1=O,-4%
Cc1ccnc(NS(=O)(=O)c2ccc(NC(=O)C3CCCNC3=O)cc2)n1 (stereo not drawn),-18%

# Later entries
Structure,AmpC inh no det
COC(=O)c1noc(-c2ccc(OC)cc2)n1,13%
CC(C)(CC(=O)N1CCN(c2ccc(Cl)cc2)CC1)CC1=NS(=O)(=O)c2ccccc2N1,52%
CCCN1C(=O)SC(CC(=O)Nc2ccccc2)C1=O (stereo not drawn),-2%
O=C(N1CCN(Cc2ccccc2)CC1)C12CC3CC(CC(C3)C1)C2,77%
C=CCn1c(/N=C/c2ccc(N(C)C)cc2)nc2ccccc21,56%
O=C(NCc1ccc(Cl)cc1)c1cc(-c2ccco2)on1,-15%
CCOc1ccc(S(=O)(=O)NCc2ccco2)c2ccccc12,-11%
O=C(NCc1ccco1)C(Cc1ccccc1)N1C(=O)C2C3C=CC(C3)C2C1=O (stereo not drawn),6%
CNC(=O)CN(c1cccc(Br)c1)S(C)(=O)=O,-5%
O=C(O)c1c2c(nc3ccc(S(=O)(=O)N4CCC(C(=O)N5CCCCC5)CC4)cc13)CCCC2,20%

# Other records
Structure,AmpC inh no det
O=C(CSCC(=O)Nc1nccs1)Nc1ccccc1,-9%
O=C(CCc1ccccc1)Nc1c(F)c(F)c(F)c(F)c1F,-5%
COc1ccc(N2C(=O)CC(Sc3ncn[nH]3)C2=O)c(OC)c1 (stereo not drawn),79%
CCc1nccn1S(=O)(=O)c1ccc2ccc(C)cc2c1,-4%
C=CCNC(N)=S,-8%
COc1ccc(OC)c(-c2cc(C(=O)Nc3cc(C)on3)no2)c1,0%
CN1C(=O)C2(Nc3ccccc3-c3nc4ccccc4n32)c2ccccc21 (stereo not drawn),12%
O=C(CCN1CCN(Cc2ccccc2)CC1)Nc1cccc(Cl)c1,75%
S=c1[nH]nc(-c2ccccc2)n1C1C=CCCC1 (stereo not drawn),-8%
COC(=O)c1cc(=O)n(Cc2cccs2)c(=NCc2cccs2)s1,-17%

# Single entries from the list.
# `C=CCNC(N)=S` in AmpC inh no det shows -8%
# `CCc1nccn1S(=O)(=O)c1ccc2ccc(C)cc2c1` in AmpC inh no det shows -4%
# `O=C(CCc1ccccc1)Nc1c(F)c(F)c(F)c(F)c1F` in AmpC inh no det shows -5%
# `CN1C(=O)C2(Nc3ccccc3-c3nc4ccccc4n32)c2ccccc21` (stereo not drawn) in AmpC inh no det shows 12%
# `COC(=O)c1cc(=O)n(Cc2cccs2)c(=NCc2cccs2)s1` in AmpC inh no det shows -17%

# Continuation:
Structure,AmpC inh no det
COCCCN(C(=O)c1ccco1)c1nc(-c2cc(OC)ccc2OC)cs1,76%
O=C(O)CCC(=O)Nc1nc(-c2ccccc2)cs1,-1%
CCOC(=O)C(NC(=O)Nc1cccc(C)n1)(OCC(F)(F)F)C(F)(F)F (stereo not drawn),33%
COc1ccc(-c2ccc(-c3noc(C)n3)c(OC)n2)cc1,9%
CCC(=O)N1CCN(c2cc3c(cc2F)c(=O)c(C(=O)O)cn3CC)CC1,-5%
CC(C)CNC(=O)NC1C(NC(=O)NCC(C)C)N(C)C(=O)N1C (stereo not drawn),0%
CN1CCN(C(=O)CN(c2cccc(Cl)c2)S(=O)(=O)c2ccccc2)CC1,40%
CC(C)CCOc1ccc(C(=O)NCCC(=O)N2CCOCC2)cc1,71%
CCC(=O)N1CCN(c2ccccc2NC(=O)COc2cc(C)ccc2C(C)C)CC1,102%
Clc1cc(Cl)c(OCc2nc(-c3ccccn3)no2)cc1Cl,26%

# (continued)
Structure,AmpC inh no det
CCCn1c(=O)c(C(=O)NCc2ccncc2)c(O)c2ccccc21,138%
c1ccc(OCCOc2ncnc3sccc23)cc1,2%
COc1ccc(CCNC(=O)C2(C)CCC(=O)N2Cc2ccc3c(c2)OCO3)cc1OC (stereo not drawn),4µM*[single pt active]
COc1ccccc1Cn1nnc2c(=O)[nH]c(C3CCN(C(=O)c4ccc(C)cc4)CC3)nc21,105%
CC(C)C(NS(=O)(=O)c1cccc2nsnc12)C(=O)N1CCc2ccccc2C1 (stereo not drawn),30%
Cc1[nH]nc2nc(SCC(=O)NCC3CCCO3)n(-c3ccc(Br)cc3)c(=N)c12 (stereo not drawn),135%
COc1ccc2cc3cc(C(=O)NCCN4CCc5ccccc5C4)oc3nc2c1,104%
COc1ccccc1OCc1ccc(C(=O)NC(C)(C)C)o1,24%
COCCn1c(=O)c(-c2cccs2)nc2cnc(Oc3ccccc3)nc21,79%
O=c1c2ccccc2nc(SCc2cn3ccsc3n2)n1-c1ccccc1,2%

# (cont.)
Structure,AmpC inh no det
CCCCOC(=O)CSc1nc(N)c(C#N)c(-c2ccc(OCC)cc2)c1C#N,-23%
O=C(NCCc1ccccc1)C1CCN(S(=O)(=O)c2ccc(-c3nn[nH]n3)cc2)CC1,-14%
CCC(=O)N1CCc2cc(S(=O)(=O)NCCC(=O)Nc3cc(C)cc(C)c3)ccc21,17%
CCCCOc1ccc(/C(O)=C2/C(=O)C(=O)N(CCN(C)C)C2c2ccc(O)c(OC)c2)cc1 (stereo not drawn),1%
CCCCn1c(=NC(=O)c2cccnc2)c(C(=O)OCC)cc2c(=O)n3ccccc3nc21,76%
O=C(NC1(C(F)(F)F)NC(=O)N(C2CCCC2)C1=O)C1CC1 (stereo not drawn),0%
Cn1c(CNc2ccccc2)cc(=O)n(C)c1=O,-2%
COc1nc(N2CCCC2)nc(-n2cc(-c3ccccc3)nn2)n1,17%
CCn1c(=O)c(C(=O)NCCc2ccccc2)c(O)c2ccccc21,-8%
CCC(NC(=O)Cn1cnc2c(=O)n(C)c(=O)n(C)c21)c1ccccc1 (stereo not drawn),0%

# New compounds follow:
Structure,AmpC inh no det
CCOC(=O)N1CCc2c(sc3c2C(=O)NC(c2ccc(-c4ccc(Cl)cc4)o2)N3)C1 (stereo not drawn),10%
C=CCn1c(=O)c2ccccc2n2c(SCC(=O)N3CCCc4ccccc43)nnc12,38%
CC(C)CC(=O)Nc1ccccc1N1CCN(C(=O)c2ccccc2)CC1,28%
CC(=O)Nc1ccc2c(c1)C(=O)N(C1CCCCC1)C2=O,4%
c1ccn2c(SCc3cn4ccsc4n3)nnc2c1,-8%
Cn1c(SCC(=O)NCc2ccc(F)cc2)nc2ccccc21,12%
O=S(=O)(NCc1ccccn1)c1ccc(F)cc1,4%
O=S(=O)(Cl)c1ccccc1,-12%
C1CN(c2nc3nonc3n3nnnc23)CCO1,-11%
COc1ccc(CNc2cc(-c3ccccc3CN(C)C)ncn2)c(OC)c1,44%

# The list goes on:
Structure,AmpC inh no det
COc1ccc(S(=O)(=O)N2CCN(CC(=O)Nc3ccc(F)c(F)c3)CC2)cc1,52%
CCNc1nc(Oc2ccc(C(=O)OCC)cc2)nc(SC)n1,24%
COc1ccc(CCNC(=O)Cn2nnc(-c3cccc(OC)c3OC)n2)cc1OC,45%
CC1=C(C(=O)Nc2cc(C)ccn2)C(c2ccc(C)cc2)C2=C(CCCC2=O)N1 (stereo not drawn),23%
O=C(Nc1cccc2ccccc12)N1CCOCC1,?
CC(=O)N1CCC(O)(c2cccc(C(F)(F)F)c2)CC1,3%
CCCNc1nc2c(c(=O)n(C)c(=O)n2C)n1CCC(C)C,28%
CNc1ccnc(-c2c(C)noc2C)n1,-11%
COc1ccc(NC(=O)N2CCCC3(CCN(C(C)=O)CC3)C2)cc1,0%
Cc1cc(Nc2nnnn2-c2ccccc2)n(-c2ccc(Cl)cc2)n1,3%

# Later entries:
Structure,AmpC inh no det
Cc1ccc(S(=O)(=O)N2CCN(C(=O)COC(=O)c3cc(C)oc3C)CC2)cc1,61%
O=C(CCCn1c(=O)[nH]c2ccsc2c1=O)NCc1cccs1,2%
CCN1C(=O)/C(=C\N2CCN(c3ccccc3)CC2)SC1=S,12%
O=C1CC(c2ccco2)CC(O)=C1C=NCCO (stereo not drawn),-3%
COC(=O)N1CCC[C@@]2(CCN(C(=O)Nc3cccc(F)c3)C2)C1,136%
O=[N+]([O-])c1cccc(Cl)c1,-2%
COc1ccc(CNC(=O)c2cc3c(C)nc4ccccc4c3o2)c(OC)c1,110%
COc1ccccc1NC(=O)N1CCN(c2cc(-c3ccccc3)nc3ncnn23)CC1,78%
c1cncc(CNc2c3c(nc4nnnn24)CCCC3)c1,-7%
CCOC(=O)c1nnn(-c2nonc2N)c1CSc1ccc(C)cc1,21%
Cc1nc2ccccc2c(=O)n1/N=C/c1ccccn1,-5%
Cc1noc(NS(=O)(=O)c2cccc3c(N(C)C)cccc23)c1C,0%
COc1ccc(S(=O)(=O)NC2CCCCC2)c(C)c1C,-2%

# Ordered by length of the SMILES (ascending): some entries from above.
Structure,AmpC inh no det
O=C1CC(c2ccco2)CC(O)=C1C=NCCO (stereo not drawn),-3%
COc1ccc(S(=O)(=O)NC2CCCCC2)c(C)c1C,-2%
O=C(CCCn1c(=O)[nH]c2ccsc2c1=O)NCc1cccs1,2%
COc1ccc(CNC(=O)c2cc3c(C)nc4ccccc4c3o2)c(OC)c1,110%
Cc1ccc(S(=O)(=O)N2CCN(C(=O)COC(=O)c3cc(C)oc3C)CC2)cc1,61%

# Reformatted field by field: entries from further up.
CC(C)CCOc1ccc(C(=O)NCCC(=O)N2CCOCC2)cc1
  AmpC inh no det: 71%
CCc1nccn1S(=O)(=O)c1ccc2ccc(C)cc2c1
  AmpC inh no det: -4%

# An excerpt. The share of hits here may be higher or lower than overall.
